gsp antag = antagonists of gsp mutant (McCune-Albright syndrome); gsp-mutant cells, cAMP HTRF, 30 min; control for the full effect not named in the record; Potency, µM (series often up to 76.9 µM), without a hit: top-dose activity change, negative = inhibition, most hits filed as inhibitors; 340,000 compounds, 0.4% hits; AID 624288; active = falling curve of any shape with a large fitted effect; inconclusive = falling curve, mostly with a smaller effect; inactive = flat or rising curve; cell line not stated here;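 also: intracellular cAMP measured with PDE inhibitor Ro 20-1724 present during compound exposure; potency is read from the fitted curve at half-maximal effect; % is scaled to controls: 0 for no effect and ±100 for the full control effect; nearly all actives have a fitted effect of over 65% in size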
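HTRF cAMP read-out (cAMP-d2 plus anti-cAMP antibody-K in lysis buffer, 30 min RT). Before lysis, cells are exposed to compounds with […] for 30 min at 37C in DPBS containing Ca/Mg, BSA and Tween 20.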
gsp agonist = agonists of gsp mutant (McCune-Albright syndrome). 340,000 compounds, 0.13% hits. gsp mutant cells, cAMP HTRF, 30 min; control for the full effect not named in the record. AID 624287. Potency, µM (titrated, usually from 76.9 µM), for inactives: at the highest dose activation (cAMP increase), hits mostly activators; active = well fitted activation curve with a large enough effect; inconclusive = small, poorly fitted or top-dose-only effect, or another doubt; inactive = no such curve, though single readings can be large or run the other way; cell line not stated here;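 also: phosphodiesterase inhibitor Ro 20-1724 added with compounds to block cAMP breakdown; potency is read from the fitted curve at half-maximal effect; nearly all actives have a fitted effect of over 60% in size; about a fifth of the inactives were tested at one dose only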
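Cells stably selected in G418 were plated at 2000/well, grown 16-24 hr, then given compounds in DMSO with the PDE inhibitor […] (300 uM solution added) for 30 min at 37C; cAMP was read by HTRF.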
TRPV1 PAM = human TRPV1 potentiation; Q8NER1; TRPV1-expressing cells, Fluo-8 calcium influx, capsaicin EC20 potentiation; host cell line not named in the record; control for the full effect not named in the record; potentiation, % at 8.33 µM; 320,000 compounds, 0.02% hits; AID 540277; active means potentiation above 80%; inconclusive means 30% to 80%; inactive means below 30%; also: 0% is about no effect
Target sequence (Q8NER1 whole entry, looked up): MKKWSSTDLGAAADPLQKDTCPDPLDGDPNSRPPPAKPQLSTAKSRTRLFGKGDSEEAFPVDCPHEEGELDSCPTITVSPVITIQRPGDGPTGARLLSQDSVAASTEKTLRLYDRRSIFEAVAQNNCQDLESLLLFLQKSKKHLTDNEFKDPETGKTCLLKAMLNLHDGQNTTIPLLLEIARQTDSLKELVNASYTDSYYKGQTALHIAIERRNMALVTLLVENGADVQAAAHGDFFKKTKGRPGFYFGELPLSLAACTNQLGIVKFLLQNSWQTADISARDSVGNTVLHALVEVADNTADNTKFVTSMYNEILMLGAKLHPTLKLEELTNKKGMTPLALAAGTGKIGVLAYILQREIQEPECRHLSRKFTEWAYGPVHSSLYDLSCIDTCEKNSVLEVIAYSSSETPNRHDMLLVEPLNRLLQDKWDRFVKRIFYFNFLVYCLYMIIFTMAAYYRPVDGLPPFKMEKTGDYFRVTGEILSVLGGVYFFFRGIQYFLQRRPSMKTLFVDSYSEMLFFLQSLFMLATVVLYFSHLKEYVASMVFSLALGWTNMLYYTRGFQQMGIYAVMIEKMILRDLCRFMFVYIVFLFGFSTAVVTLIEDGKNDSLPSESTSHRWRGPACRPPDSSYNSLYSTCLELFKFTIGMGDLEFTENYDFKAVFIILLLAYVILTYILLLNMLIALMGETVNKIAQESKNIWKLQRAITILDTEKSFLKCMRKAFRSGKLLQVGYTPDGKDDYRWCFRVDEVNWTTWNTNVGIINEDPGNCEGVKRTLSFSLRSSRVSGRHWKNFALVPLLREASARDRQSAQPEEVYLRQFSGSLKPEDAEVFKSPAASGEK
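Fluo-8 calcium influx in TRPV1-expressing cells, kinetic read (ex 480/em 520 nm). Compound added and read 3 min for agonist activity, followed by capsaicin at EC20 final and 2 min further read for enhancement.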
CtBP-E1A inh = inhibitors of CtBP/E1A interaction; 340,000 compounds, 0.49% hits; AID 651724; AlphaScreen GST-E1A/His-CtBP binding, 1536-well; active compounds read low; control for the full effect not named in the record; activity change, % (test concentration not listed); in the data active means activity change below about -65%; inconclusive means about -30% to -65%; inactive means above about -30%; also: % is scaled to controls: 0 for no effect and ±100 for the full control effect
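AlphaScreen with 125 nM GST-E1A and 125 nM His-CtBP (5X stocks) in Tris pH 8.0, 300 mM NaCl, BSA, Tween 20, TCEP. Compounds preincubated 2 h at 37 deg C, then glutathione donor/nickel acceptor beads added for 1 h at 37 deg C in dark.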
Sfp PPTase inh = Sfp phosphopantetheinyl transferase inhibition; Biochemical Sfp PPTase activity, qHTS; Potency, µM, for inactives: max response, negative = inhibition, actives largely listed as inhibitors; 310,000 compounds, 3.5% hits; AID 1490; active = well fitted inhibition curve with a large enough effect; inconclusive = small, poorly fitted or top-dose-only effect, or another doubt; inactive = no such curve, though single readings can be large or run the other way;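 also: the enzyme is Sfp with the accession as filed and its product quenches rhodamine fluorescence; potency is read from the fitted curve at half-maximal effect; 0% = enzyme reaction without inhibitor and -100% = no enzyme wells; top concentration of the series not given in the record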
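With Hepes-Na pH 7.6 buffer containing 10 mM MgCl2, Sfp (15 nM) modified BHQ-2-YbbR (12.5 uM) using rhodamine-CoA (5 uM). Two reads 30 minutes apart at 525/598 nm yielded each well's rate.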
ClpP mod = qHTS Assay for Activators of ClpP; ATP-dependent Clp protease proteolytic subunit (Bacillus subtilis (strain 168)), P80244; purified B. subtilis ClpP, FRET peptide cleavage, 20 min; Potency, µM (titrated, usually from 57.5 µM), for the others: top-dose activity change, negative = active; 340,000 compounds, 1.9% hits; active = well fitted falling curve with a large enough effect; inconclusive = small, poorly fitted or top-dose-only effect; inactive = no such curve, though single readings can be large or run the other way; also: potency is read from the fitted curve at half-maximal effect; the source files actives as falling curves though it sought activators and does not explain the sign; nearly all actives have a fitted effect of over 65% in size; many hits overshoot -100%
Target sequence (P80244 whole entry, looked up): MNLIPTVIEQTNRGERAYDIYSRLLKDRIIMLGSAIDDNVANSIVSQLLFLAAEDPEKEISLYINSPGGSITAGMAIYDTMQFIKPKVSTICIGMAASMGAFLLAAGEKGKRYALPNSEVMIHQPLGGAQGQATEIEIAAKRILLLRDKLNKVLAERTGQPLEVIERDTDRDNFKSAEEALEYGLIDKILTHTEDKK
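FRET quenching reversal measured ClpP activation: 10 microg/mL B. subtilis ClpP at pH 8 with the FRET-FV decapeptide, read at 430 nm after 320 nm excitation. The 20-min minus 0-min signal was scaled between DMSO/no-enzyme wells and ADEP (5.8 microM final).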
Menin MLL FP FL = inhibitors of human menin-MLL interaction, wild-type MLL peptide; FP activity change, % at 61.4 µM; Fluorescence polarization, fluorescein-MLL peptide displacement from menin; 290,000 tested, under 10 active; inconclusive = falling polarisation curve, or a change in total fluorescence; inactive = total fluorescence flat and polarisation flat or rising; no compound was filed as active; the % refers to the polarisation; negative = inhibition;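 also: % of control where 0% means no effect; inhibitors lower the polarisation; unlabelled MLL peptide was the positive control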
Numbers without * were called inactive; ? = inconclusive; · = not tested or not shown; & = joins results of further samples; [ ] = another dose, or the depositor's remark.

SMILES | gsp antag | gsp agonist | TRPV1 PAM | CtBP-E1A inh | Sfp PPTase inh | ClpP mod | Menin MLL FP FL
COc1ccc(/C=C/C(=O)c2ccccc2)cc1COc1ccc(F)cc1 | -7% | -1% | -19 | 0 | ? | -2.1% | 4.8
COc1ccccc1CNC(=O)Cc1c[nH]c2ccccc12 | -11% | -2%[15.4 µM] | ? | -2 | 17% | · | 4.6
CC(=O)Oc1ccc(C(=O)Nc2cc(C)on2)cc1 | 7% | -35%[inhibitor] | ? | 6 | 6% | 0.6% | 2.7
N#C/C(=C1/C(=O)Nc2ccc(Br)cc21)c1ccccn1 | -2% | -1% | 7 | 0 | 19% | 0.9% | -1.7
Cc1cccc(C2c3[nH]c4ccccc4c3CCN2Cc2cnn(-c3ccc(F)cc3)c2)n1 (stereo not given) | 2% | -5%[15.4 µM] | 5 | 2 | -3% | · | -0.9
CC1=NN(c2ccc(Cl)c(C(=O)O)c2)C(=O)C1 | 11% | -3% | 19 | 12 | 13% | -1.5% | -1.4
NC(=O)c1ccc(NC(=S)NCc2ccco2)cc1 | 6% | -12% | -6 | · | -3% | -0.9% | 0.7
COc1cccc(S(=O)(=O)NCc2ccc(C(=O)N3CCN(c4ccccc4OC)CC3)cc2)c1 | · | · | -5 | · | 5% | · | -1.0
CC(=O)c1ccc(N2CCN(C(=O)c3ccc(Cl)c(S(=O)(=O)NC4CC4)c3)CC2)c(F)c1 | ? | -1% | -11 | 8 | · | -0.7% | ·
COc1ccccc1/C=C/C(=O)Nc1nc(N)n(-c2ccccc2)n1 | -1% | 11% | -1 | · | 30% | -4.9% | 1.4
CN1C(=O)CC(n2c(CO)nc3ccccc32)C1=O (stereo not given) | 14% | -39%[inhibitor] | 3 | 1 | 22% | -1.4% | 4.0
CCC(=O)N1c2ccc(S(=O)(=O)CCC(=O)NCCC3=CCCCC3)cc2CC1C (stereo not given) | -10% | -3% | -2 | 6 | 5% | -1.3% | 1.9
CCn1cc(CNC(=O)/C=C/c2ccc([N+](=O)[O-])cc2)c(C)n1 | 2% | 7% | · | -2 | 8% | -0.1% | -0.7
CC(=O)NNS(=O)(=O)c1scc(S(=O)(=O)c2ccc(Cl)cc2)c1C | -7% | -13% | 11 | · | 11% | -0.3% | 2.3
c1cncc(-c2nnc3n2N=C(c2cccs2)CS3)c1 | 11% | 17% | 3 | ? | 26% | -0.4% | 3.0
CCCNC(=O)c1onc(CSc2ccc(F)cc2)c1C(=O)NCCOC | -3% | 3% | -27 | 3 | · | -0.9% | ·
S=C(NCC1CCCO1)Nc1cc(Cl)c(Cl)cc1Cl (stereo not given) | -14% | -15% | -4 | 0 | 20% | 2.2% | -0.8
O=C(CSc1nc2scc(-c3cccs3)c2c(=O)n1CCc1ccccc1)N1CCCC1 | -29% | ? | · | 4 | · | -0.3% | ·
CSc1ccccc1NC(=O)C(=O)c1c[nH]c2ccccc12 | -28% | 0%[15.4 µM] | 1 | 0 | 8% | · | 0.7
O=C1C(Cl)=C(NCC2CCCO2)C(=O)N1CCc1ccccc1 (stereo not given) | -25% | 1% | 3 | 24 | -37% | -2.2% | 0.3
Cn1c2c(c(=O)n(C)c1=O)CN(CCCN1CCOCC1)CN2 | 8% | 21% | 2 | 4 | 17% | -1.1% | 3.8
NS(=O)(=O)c1cc2c(cc1Cl)NC(c1ccccc1OCC(=O)O)NS2(=O)=O (stereo not given) | -3% | 6%[15.4 µM] | -5 | 29 | -2% | · | 1.3
CC(=O)N1CC=CC1(CC(C)C)C(=O)NCCN1CCOCC1 (stereo not given) | 9% | 26% | 0 | 9 | 3% | 1.1% | -1.2
N/C(=N\OC(=O)CC(c1ccccc1)c1ccccc1)c1cccnc1 | -29% | -1% | 0 | 0 | 10% | 3.0% | -0.4
O=C(COC(=O)CNC(=O)C12CC3CC(CC(C3)C1)C2)Nc1ccccc1 | -12% | -4% | 17 | 6 | 7% | 0.8% | 4.3
COc1ccc(/C=N/NC(=O)c2cc(C(C)(C)C)[nH]n2)cc1COc1ccc(F)cc1F | -28% | -14% | -2 | 10 | 4% | -7.4% | 6.7
O=c1c2cnn(-c3ccccc3)c2nnn1Cc1ccccn1 | -1% | -15% | 7 | 1 | -16% | -6.5% | -2.5
COc1ccc(OC)c(/C(O)=C/C(=O)C(=O)Nc2cc(C)ccc2OC)c1 | 3% | 0% | 13 | 1 | 0% | 2.4% | 3.1
CCOC(=O)c1sc(NC(=O)C(OC(C)=O)c2ccccc2)nc1C (stereo not given) | -3% | -1% | 0 | 2 | -6% | -1.4% | -2.0
N/C(=N\OC(=O)c1cccc(Cl)c1)c1ccncc1 | 10% | 0% | -17 | · | 6% | -0.7% | -5.8
Cc1ccc(C(=O)N2CCN(c3ccc(NC(=O)c4ccc(Br)o4)cc3)CC2)cc1 | ? | 12% | 0 | -24 | -15% | -1.6% | 0.3
COc1ccc(Cl)cc1NC(=O)NC(C)C(C)(C)C (stereo not given) | -18% | -12% | -1 | 8 | 19% | · | -7.8
O=C(COC(=O)CC1CC2CCC1C2)Nc1cc([N+](=O)[O-])ccc1F (stereo not given) | -1% | ? | -4 | 0 | 17% | · | -2.2
COc1ccc(NC(=O)COc2ccccc2)c(OC)c1 | 8% | 30% | -9 | 3 | 11% | 1.4% | 2.4
COc1ccc(OC(C)C(=O)NCc2cccnc2)cc1 (stereo not given) | 16% | 8% | -2 | -3 | 28% | -0.3% | -2.1
Cc1c(Cl)cccc1NC(=O)NNC(=O)CCc1ccccc1 | -3% | -14% | -6 | 7 | 20% | -0.8% | ·
CCOc1ccc(S(=O)(=O)NN2Cc3ccccc3C2=N)cc1 | 9% | ? | -8 | · | -12% | -0.6% | 1.9
COc1ccc(S(=O)(=O)/C(C#N)=C/Nc2cccc(F)c2)cc1 | -6% | -12% | 4 | 3 | 17% | 1.8% | -0.5
Cc1ccc(S(=O)(=O)Nc2ccc(S(=O)(=O)Nc3cc(C)nc(C)n3)cc2)cc1 | 1% | 5% | 8 | · | -17% | 0.6% | 2.9
Cc1c(NC(=O)c2cnn3c2NC(c2ccc(Br)cc2)CC3C(F)(F)F)c(=O)n(-c2ccccc2)n1C (stereo not given) | 18% | -10% | 1 | 0 | 2% | 1.5% | 0.6

By substructure: the compounds so far containing a cyano group (2)
SMILES | gsp antag | gsp agonist | TRPV1 PAM | CtBP-E1A inh | Sfp PPTase inh | ClpP mod | Menin MLL FP FL
N#C/C(=C1/C(=O)Nc2ccc(Br)cc21)c1ccccn1 | -2% | -1% | 7 | 0 | 19% | 0.9% | -1.7
COc1ccc(S(=O)(=O)/C(C#N)=C/Nc2cccc(F)c2)cc1 | -6% | -12% | 4 | 3 | 17% | 1.8% | -0.5

Next part.
SMILES | gsp antag | gsp agonist | TRPV1 PAM | CtBP-E1A inh | Sfp PPTase inh | ClpP mod | Menin MLL FP FL
COc1ccc(Nc2nc(-c3cc4cccc(OC)c4oc3=O)cs2)cc1 | -12% | -2% | 25 | 0 | ? | 2.5% | 10
CCn1c(CN2CCN(C(=O)c3ccco3)CC2)nc2c1c(=O)n(C)c(=O)n2C | 22% | ? | 2 | -28 | 11% | -1.1% | 0.3
O=C(c1ccccc1)N1N=C(c2ccc(F)cc2)CC1c1ccc(F)cc1 (stereo not given) | 1% | -8% | · | -11 | · | · | ·
O=C(NCC(=O)N1CCCCC1)c1ccc(Cl)cc1Cl | -5% | -3% | -1 | 5 | 17% | -3.3% | -1.0
COC(c1ccccc1)c1nnc(CCC(=O)N(C)CCOc2ccccc2)o1 (stereo not given) | 2% | -11%[15.4 µM] | 4 | · | 19% | · | -1.9
CC(NC(=O)c1cccnc1)C(=O)O (stereo not given) | 63%[activator] | -10% | 9 | · | 23% | 0.2% | 1.4
COc1cc(Cl)c(C)cc1NC(=O)CSc1nc2ccccc2o1 | -25% | -30%[inhibitor] | -1 | -6 | 7% | -1.5% | 1.4
CC(O)CC(C(=O)NNc1ccccc1)C(=O)NNc1ccccc1 (stereo not given) | 6% | 27%[15.4 µM] | 1 | -12 | 15% | · | 5.3
Cc1ccc(SCCC(=O)NC(C(C)C)C(C)C)cc1 | ? | 3% | -10 | · | 28% | -13% | 6.6
COc1ccc(C2/C(=C(/O)c3ccccc3)C(=O)C(=O)N2CCN2CCOCC2)c(OC)c1 (stereo not given) | -5% | ? | 3 | 2 | -11% | -0.3% | 4.2
O=C(c1cccc(Br)c1)N1CCN(c2cnn(-c3ccccc3)c(=O)c2Cl)CC1 | -33% | 35% | 19 | 8 | 18% | · | 2.6
COc1cccc(C2CCCN2Cc2nc(-c3cnccn3)no2)c1 (stereo not given) | 5% | 12% | 1 | · | -4% | -0.4% | -0.3
Cc1ccc(NC(=O)CCc2c(C)nn(-c3ccc(N4CCOCC4)nn3)c2C)cc1F | -2% | ? | -17 | 1 | 7% | 1.5%&-0.6% | ·
CCN(CCCCCN(C)C)Cc1cc2ccccc2o1 | 14% | 16%[15.4 µM] | -4 | 2 | -11% | 3.6% | -0.2
Fc1cccc(Cl)c1Cn1nnc(-c2ccc3c(c2)OCO3)n1 | -15% | -1% | -9 | 24 | ? | -2.8% | -1.2
CCN1CCCC1CNC(=O)c1cc2c(-c3ccc(Cl)cc3)nn(C)c2s1 (stereo not given) | -4% | 20% | -2 | -22 | 6% | 4.5% | 4.3
CC(C)OC(=O)NC(Nc1ccccc1C(=O)O)(C(F)(F)F)C(F)(F)F | -6% | 8% | -16 | · | 6% | 3.2% | 0.7
Cc1n(C)c2cc(Cl)ccc2[n+]1Cc1ccccc1 | 5% | 8%[15.4 µM] | 12 | 4 | 12% | · | -2.2
O=C(Oc1ccc(-c2nnco2)cc1)c1ccc(Br)o1 | 5% | 3% | 5 | -10 | 4% | -4.5% | ·
COc1ccc(N2C(=O)CSC23C(=O)N2c4c(cccc43)C(C)=CC2(C)C)cc1 (stereo not given) | -7% | 9% | -21 | -10 | -5% | 0.9% | 0.2

Source: PubChem BioAssay (National Center for Advancing Translational Sciences (NCATS))
